Screening data deposited in PubChem by National Center for Advancing Translational Sciences (NCATS).
ALDH1A1 block: inhibitors of human aldehyde dehydrogenase 1A1 | P00352 | Purified ALDH1A1, NADH fluorescence, propionaldehyde substrate | Potency, µM (titrated, usually from 75.3 µM), without a hit: at the highest dose activity, negative = inhibition, actives largely listed as inhibitors | hit rate 7.3% among 220,000; active means well fitted inhibition curve with a large enough effect, not every such curve was filed as active; inconclusive means small, poorly fitted or top-dose-only effect, or another doubt; inactive means no such curve, though single readings can be large or run the other way;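 further: plate controls were no enzyme wells and a reference inhibitor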
Tau fibril ThT: inhibitors of human tau fibril formation, thioflavin T binding. P10636. recombinant tau K18 P301L (four-repeat tau fragment), heparin-induced fibrillization, ThT fluorescence. Potency, µM (top dose mostly 57.4 µM), for inactives: at the highest dose activity, negative = inhibition, actives largely listed as inhibitors. hit rate 2.1% among 270,000. AID 1460; further: on the % scale 0 is the no-effect control and ±100 the full control effect; nearly all actives have a fitted effect of over 55% in size
Target sequence (P10636 561-689 P618L limits assumed): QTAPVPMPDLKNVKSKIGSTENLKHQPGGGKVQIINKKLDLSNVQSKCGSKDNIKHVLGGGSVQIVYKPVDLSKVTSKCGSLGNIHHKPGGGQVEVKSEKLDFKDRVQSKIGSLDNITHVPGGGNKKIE
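In this qHTS, human K18 P301L tau is incubated with compound and heparin for 6 hr at 37 C, and Thioflavin T fluorescence then reports fibril load.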
SMN2 splice up: SMN2 splice variant enhancement; HEK293 SMN2-luciferase splicing reporter, luminescence, 30-36 h; Potency, µM (top dose mostly 46.1 µM), without a hit: at the highest dose activity change, positive = activation, hits mostly activators; hit rate 2.8% among 210,000; AID 1458; further: % of control where 0% means no effect; nearly all actives have a fitted effect of over 55% in size
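HEK293 cells carry an SMN2 minigene-luciferase reporter in which exon 7 inclusion puts luciferase in frame. Cells were seeded at 2000 cells/well, attached for 10-12 hours, then exposed to compounds for 30-36 hours at 37C before ONE-Glo luminescence.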
RECQ1 inh: RECQ1 (human) helicase inhibition; P46063; RECQ1 DNA unwinding, red fluorescence kinetic read; Potency, µM (series often up to 57.3 µM), for the others: at the top dose activity, negative = inhibition, actives largely listed as inhibitors; hit rate 0.54% among 240,000; AID 2549;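 further: plate controls were vehicle for no effect and no enzyme for full effect; nearly all actives have a fitted effect of over 30% in size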
Target sequence (P46063 whole entry, looked up): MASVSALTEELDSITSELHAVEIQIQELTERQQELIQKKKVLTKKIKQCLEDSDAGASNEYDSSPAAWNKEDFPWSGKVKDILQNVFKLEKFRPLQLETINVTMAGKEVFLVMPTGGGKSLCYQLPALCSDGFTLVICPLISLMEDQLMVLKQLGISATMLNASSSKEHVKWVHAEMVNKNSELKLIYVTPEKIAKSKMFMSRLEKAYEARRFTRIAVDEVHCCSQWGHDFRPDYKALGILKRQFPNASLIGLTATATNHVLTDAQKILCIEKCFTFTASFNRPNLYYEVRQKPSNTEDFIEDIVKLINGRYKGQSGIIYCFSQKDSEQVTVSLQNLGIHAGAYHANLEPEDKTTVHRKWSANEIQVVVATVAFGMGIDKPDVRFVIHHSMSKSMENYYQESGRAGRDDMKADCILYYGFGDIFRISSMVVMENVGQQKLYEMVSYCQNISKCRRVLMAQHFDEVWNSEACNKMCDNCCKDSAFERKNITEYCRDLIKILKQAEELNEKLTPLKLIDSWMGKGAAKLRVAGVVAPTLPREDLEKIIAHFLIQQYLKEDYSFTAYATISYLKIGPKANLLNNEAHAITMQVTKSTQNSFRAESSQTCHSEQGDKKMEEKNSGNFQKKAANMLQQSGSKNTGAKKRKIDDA
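50 nM RECQ1T1 preincubated 15 min with compound in Tris pH 8.0 buffer with MgCl2, DTT, Tween-20 and 2.5 ug/ml poly(dI-dC); started with 200 nM TAMRA/BHQ-2 forked duplex and 2 mM ATP. Unwinding read as fluorescence (525/598 nm), two reads 2 h apart.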
KinaseGlo FLuc: blocks Kinase-Glo luciferase, a counter-screen artifact; AID 1379; Kinase-Glo luciferase, ATP luminescence, 8 min; hit rate 0.28% among 200,000; Potency, µM (series often up to 38.3 µM), for inactives: at the top dose activity change, negative = inhibition, actives largely listed as inhibitors; further: on the % scale 0 is the no-effect control and ±100 the full control effect; nearly all actives have a fitted effect of over 60% in size
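Compound is pinned into ATP-containing buffer (10 uM ATP, imidazole pH 7.2, 7 mM MgCl2). Kinase-Glo luciferase reagent is then added. Light output is recorded following an 8-min room-temperature incubation.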
LMNA splice mod: modulators of lamin A splicing; HeLa LMNA splicing GFP/RFP minigene ratio, 48 h; Potency, µM (series often up to 46.1 µM), for inactives: at the highest dose ratio change, negative = inhibition, hits mostly inhibitors; hit rate 0.01% among 200,000; active means well fitted inhibition curve with a large enough effect in the signal ratio, with a control signal flat, not every such curve was filed as active; inconclusive means small, poorly fitted or top-dose-only effect, or effect the other way, or a change in a side signal; the % refers to the signal ratio; further: on the % scale 0 is the no-effect control and ±100 the full control effect
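S3 HeLa cells stably expressing lamin A-EGFP splicing minigene plus DsRed2, 600 cells/well, 48 h compound exposure at 37C. Laser-scanning cytometry; analysed as GFP (500-530 nm)/RFP (575-640 nm) total intensity ratio; 0.5% DMSO vehicle.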
JMJD2E inh: JMJD2E (human) inhibition; B2RXH2; JMJD2E catalytic domain, FDH-coupled NADH fluorescence (FDH is formaldehyde dehydrogenase); Potency, µM (highest dose often 57.1 µM), inactives show at the highest dose activity change, negative = inhibition, hits mostly inhibitors; hit rate 1.6% among 230,000; AID 2147; active means well fitted inhibition curve with a large enough effect, not every such curve was filed as active; inconclusive means small, poorly fitted or top-dose-only effect, or another doubt; inactive means no such curve, though single readings can be large or run the other way;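 further: 0% = wells with enzyme and -100% = buffer wells without enzyme; nearly all actives have a fitted effect of over 50% in size; many of its hits are not listed in these tables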
An asterisk follows results filed as active; i = inactive; u = inconclusive; x = no result given; & = joins results of further samples; [ ] = dose if it differs, or a comment. Unless noted, the call rests on the fitted dose curve; in most records, active means well fitted curve in the direction sought with a large enough effect; inconclusive means small, poorly fitted or top-dose-only effect, or another doubt; inactive means no such curve, though single readings can be large; an effect the other way counts as inactive or inconclusive. Potency means the concentration at half of the fitted maximal effect.

nr | canonical_smiles | ALDH1A1 block | Tau fibril ThT | SMN2 splice up | RECQ1 inh
1 | CN1CCN(CCC=C2c3ccccc3Sc3ccc(S(=O)(=O)N(C)C)cc32)CC1 | u | -12.5%&-6.4% | 2.8% | -1.7%&5.7%
2 | CCOC(=O)CSc1nc(C)c2ccc(C)cc2n1 | -3.6% | -14.0% | -14.6% | -6.9%
3 | O=C(O)c1cc(-c2ccncc2)nc2ccc(F)cc12 | u | -17.3% | -9.9% | -2.7%
4 | COc1ccc(-n2nc3c(N)n[nH]c3cc2=O)cc1 | u | u | 5.2% | i
5 | O=C(Nc1nnc(SCc2c(Cl)cccc2Cl)s1)C1CC(=O)N(c2ccc3c(c2)OCCO3)C1 (stereo not given) | 3.55µM* | 2.8% | -8.2% | u
6 | Cc1cc(C(=O)NNC(=O)Nc2ccc(Cl)cc2)no1 | x | 12.0% | x | 11.5%
7 | CCOC(=O)CSc1cc(C)nc(N)n1 | 9.8% | -7.1% | -4.0% | -12.0%
8 | Cc1cc(NC(=O)CCSc2ccc(Cl)cc2)no1 | 11.2% | 1.4% | u | -2.1%
9 | Cc1ccc(-c2n[nH]c(=S)n2/N=C/c2ccc(C)s2)cc1 | 2.7% | -14.9% | x | -6.3%
10 | c1ccc(CCc2ccccc2-c2nc(-c3ccccn3)no2)cc1 | -2.9% | -8.8% | -24.3% | -5.3%
11 | O=[N+]([O-])c1ccc(COc2ncnc3ccccc23)cc1 | -2.1% | -2.7% | 6.9% | i
12 | NC1=NN(c2cccc(C(=O)O)c2)C(=O)C1 | -8.1% | u | 2.0% | -7.4%
13 | Cc1cc(C)nc(SCC(=O)N(C)C)n1 | 13.8% | 0.6% | 3.8% | -4.7%
14 | Cc1sc(NC(=O)C2CC(Cl)=CCC2C(=O)O)c(C#N)c1C (stereo not given) | -7.1% | -0.3% | -3.6% | -3.7%
15 | CC(=C\C(=O)O)/C(=C/c1ccco1)C(=O)O | x | u | x | -6.6%

nr | KinaseGlo FLuc | LMNA splice mod | JMJD2E inh
1 | 2.3%[39.9 µM] | u | -25.6%
2 | -2.7% | u | -4.9%
3 | -3.6% | 4.2% | -24.6%
4 | 3.1% | -4.1%[46 µM] | -6.6%
5 | -1.7% | 8.9%[46 µM] | -19.7%
6 | x | x | 9.2%
7 | 0.1% | 12.8% | 1.5%
8 | 0.3% | x | -3.6%
9 | -4.1% | 11.4%[0.0737 µM] | 1.0%
10 | -2.9% | 0.8% | 2.9%
11 | 0.8% | u | -2.2%
12 | -1.2% | -10.0% | 1.7%
13 | -0.9% | x | -3.9%
14 | 1.2% | x | -2.6%
15 | x | x | u

An excerpt from above, reduced to Tau fibril ThT and JMJD2E inh.
| entry | Structure | Tau fibril ThT | JMJD2E inh |
| --- | --- | --- | --- |
| 12 | NC1=NN(c2cccc(C(=O)O)c2)C(=O)C1 | u | 1.7% |
| 7 | CCOC(=O)CSc1cc(C)nc(N)n1 | -7.1% | 1.5% |
| 8 | Cc1cc(NC(=O)CCSc2ccc(Cl)cc2)no1 | 1.4% | -3.6% |
| 10 | c1ccc(CCc2ccccc2-c2nc(-c3ccccn3)no2)cc1 | -8.8% | 2.9% |
| 9 | Cc1ccc(-c2n[nH]c(=S)n2/N=C/c2ccc(C)s2)cc1 | -14.9% | 1.0% |
| 6 | Cc1cc(C(=O)NNC(=O)Nc2ccc(Cl)cc2)no1 | 12.0% | 9.2% |
| 11 | O=[N+]([O-])c1ccc(COc2ncnc3ccccc23)cc1 | -2.7% | -2.2% |

More compounds:
nr | canonical_smiles | ALDH1A1 block | Tau fibril ThT | SMN2 splice up | RECQ1 inh
16 | c1ccc(CNc2ncnc3ccccc23)cc1 | -1.2% | 12.4% | -47.7%[inhibitor] | i
17 | COc1ccc(-c2csc(NC(=O)c3ccco3)n2)cc1 | u | u | 7.94µM* | -4.6%
18 | COc1ccc(-c2csc(NC(=O)C3CC(=O)N(c4ccc5c(c4)OCCO5)C3)n2)cc1 (stereo not given) | u | u | x | -8.7%
19 | COc1ccc2c(=O)c3c(=O)n(-c4ccc(C)cc4)c(-c4ccccc4)nc3oc2c1 | x | -6.6% | x | -8.6%
20 | c1ccc(-c2noc(-c3ccc4ccccc4c3)n2)nc1 | u | u | 0.501µM* | -9.8%
21 | Cc1ccc(S(=O)(=O)c2cc3c(=O)n4cccc(C)c4nc3n(Cc3ccco3)c2=N)cc1C | u | u | x | -26.7%
22 | NC(=O)COC(=O)c1c2c(nc3ccccc13)CCC2 | -15.6% | -19.4% | 25.9% | -16.6%
23 | Cc1ccccc1NC(=O)CSc1nnc(Cc2cccn2C)n1-c1ccc(F)cc1 | u | -12.8% | -1.6% | 5.3%
24 | Cc1ccccc1-c1nc(-c2ccccn2)no1 | -14.0% | -10.1% | 1.12µM* | 3.4%
25 | O=C(COC(=O)c1ccccc1NC(=O)c1ccccc1)c1ccc([N+](=O)[O-])cc1 | 8.91µM* | u | -1.1% | -4.3%
26 | O=C(O)c1ccc(Cl)c(S(=O)(=O)Nc2ccc3cn[nH]c3c2)c1 | 22.4µM* | -16.0% | -4.3% | -1.0%
27 | NC(N)=NC(N)=NCCc1ccccc1 | 1.1% | u | -72.7%[inhibitor] | 16.7%
28 | COC(=O)/C=C1\SC(=NC(=O)c2ccc(C)cc2)NC1=O | u | -15.5% | 21.8% | -2.4%
29 | CCCCC(=O)NC(=S)NNC(=O)c1ccc(Cl)cc1Cl | u | -12.3% | -16.1% | i
30 | CC(=O)NS(=O)(=O)c1ccc(NC(=O)/C=C/c2ccco2)cc1 | u | -0.1% | 18.0% | 1.7%

nr | KinaseGlo FLuc | LMNA splice mod | JMJD2E inh
16 | 0.2% | u | -3.5%
17 | 0.2% | u | 1.2%
18 | x | -24.7% | -18.7%
19 | x | x | 1.2%
20 | 10µM* | u | u
21 | x | -11.2% | u
22 | -1.0% | -10.0%[46 µM] | u
23 | -0.6% | -14.0% | 0.0%
24 | 6.31µM* | -2.2%[46 µM] | -4.9%
25 | -2.6% | -11.1% | 7.9%
26 | 6.8% | 0.0%[46 µM] | -3.3%
27 | 12.5% | u | 8.5%
28 | -2.0% | 3.5%[46 µM] | 0.7%
29 | -0.7% | u | -10.7%
30 | 1.2% | x | -1.2%

From entry 28 as far as 30, copied from above:
nr | canonical_smiles | ALDH1A1 block | Tau fibril ThT | SMN2 splice up | RECQ1 inh
28 | COC(=O)/C=C1\SC(=NC(=O)c2ccc(C)cc2)NC1=O | u | -15.5% | 21.8% | -2.4%
29 | CCCCC(=O)NC(=S)NNC(=O)c1ccc(Cl)cc1Cl | u | -12.3% | -16.1% | i
30 | CC(=O)NS(=O)(=O)c1ccc(NC(=O)/C=C/c2ccco2)cc1 | u | -0.1% | 18.0% | 1.7%

nr | KinaseGlo FLuc | LMNA splice mod | JMJD2E inh
28 | -2.0% | 3.5%[46 µM] | 0.7%
29 | -0.7% | u | -10.7%
30 | 1.2% | x | -1.2%

(more compounds)
nr | canonical_smiles | ALDH1A1 block | Tau fibril ThT | SMN2 splice up | RECQ1 inh
31 | COC(=O)/C=C1/SC(=NC(=O)c2ccc(F)cc2)NC1=O | -8.2% | u | x | i
32 | CCOC(=O)/C(C#N)=C/c1ccc(OC(=O)c2ccccn2)cc1 | 8.91µM* | u | 10.5% | -7.1%
33 | CCN(CC(=O)NCc1cccs1)c1ccc(S(=O)(=O)N2CCCC2)cn1 | 2.51µM* | -0.6% | -1.8% | -7.6%
34 | O=C(Nc1nc(-c2ccccc2)cs1)c1cccc([N+](=O)[O-])c1 | u | u | -4.8% | -13.7%
35 | Cc1cc(NC(=O)c2cc(Cl)ccc2Cl)no1 | -2.4% | -5.4% | -21.9% | i
36 | NCCc1nc(-c2ccccc2)cs1 | -9.3% | -11.8% | 19.2% | -10.2%

nr | KinaseGlo FLuc | LMNA splice mod | JMJD2E inh
31 | x | x | -10.1%
32 | 0.2% | -16.9% | u
33 | 2.8% | -8.8%[46 µM] | 3.5%
34 | -5.2% | 0.9% | -1.4%
35 | 12.2% | 3.2% | -3.9%
36 | 4.6% | x | -1.4%

Three entries from above, arranged by their value in Tau fibril ThT, descending:
No. | smiles | Tau fibril ThT
30 | CC(=O)NS(=O)(=O)c1ccc(NC(=O)/C=C/c2ccco2)cc1 | -0.1%
29 | CCCCC(=O)NC(=S)NNC(=O)c1ccc(Cl)cc1Cl | -12.3%
28 | COC(=O)/C=C1\SC(=NC(=O)c2ccc(C)cc2)NC1=O | -15.5%

Some of the compounds tested (hit frequency here may not be typical).
